Compound activity (PubChem)
INS promoter inh: TRM-6 insulin promoter activity inhibition. TRM-6 cells (human fetal islet line), insulin promoter-eGFP reporter, imaging; reporter expression induced with tamoxifen. 0.9% of 130,000 active. inhibition, % at 2 µM;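 active = inhibition above the mean plus 3 SD, with well images judged a real hit on visual review, cut at about 60% in these data, passing the limit was not always enough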
GALR2 ag: activates the human galanin receptor 2; O43603; activation, %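 (tested at 5 µM)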; GALR2-expressing cells, agonist activation read-out; 0.48% of 140,000 active;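 active = above mean plus 3 SD of all compounds, about 5% in these data, not always enough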;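 note: 0% = vehicle buffer wells and 100% = reference agonist at full effect; tested in CHO reporter cells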
RGS16-Gao HTS: regulators of human RGS16-Galphao interaction | O15492+P09471 | bead-based flow cytometry RGS16-Galphao binding, fluorescence; actives lie on both sides | binding response (% of control), % at 10 µM | 0.38% of 220,000 active;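 active = below 25% or above 175%, edge rows of some plates excepted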;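 note: Galphao activated by GDP with aluminum fluoride before binding; 100% = wells without compound and 0% = beads without RGS; some results beyond the cut were filed as inactive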
HSV augment: HSV replication enhancement | HSV replication augmentation in cells, fold increase | maximum fold increase | 0.005% of 220,000 active | AID 1956;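 active = peak rise of 1.5-fold or more in the series; tested in PC3 cells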;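 note: first round at 10 µM; read as green reporter fluorescence; hits show the peak of a series up to 25 µM; 1 = signal of infected wells without compound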
PKD1 inh: blocks activity of human protein kinase D1 | 0.056% of 200,000 active | PKD1 kinase fluorescence polarization assay | AID 797 | Q15139 | inhibition, %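 (about 10 µM by stock and volumes)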;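 active = inhibition of 50% or more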;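 note: controls were vehicle for no effect and a reference inhibitor for full effect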
Target sequence (Q15139 whole entry, looked up): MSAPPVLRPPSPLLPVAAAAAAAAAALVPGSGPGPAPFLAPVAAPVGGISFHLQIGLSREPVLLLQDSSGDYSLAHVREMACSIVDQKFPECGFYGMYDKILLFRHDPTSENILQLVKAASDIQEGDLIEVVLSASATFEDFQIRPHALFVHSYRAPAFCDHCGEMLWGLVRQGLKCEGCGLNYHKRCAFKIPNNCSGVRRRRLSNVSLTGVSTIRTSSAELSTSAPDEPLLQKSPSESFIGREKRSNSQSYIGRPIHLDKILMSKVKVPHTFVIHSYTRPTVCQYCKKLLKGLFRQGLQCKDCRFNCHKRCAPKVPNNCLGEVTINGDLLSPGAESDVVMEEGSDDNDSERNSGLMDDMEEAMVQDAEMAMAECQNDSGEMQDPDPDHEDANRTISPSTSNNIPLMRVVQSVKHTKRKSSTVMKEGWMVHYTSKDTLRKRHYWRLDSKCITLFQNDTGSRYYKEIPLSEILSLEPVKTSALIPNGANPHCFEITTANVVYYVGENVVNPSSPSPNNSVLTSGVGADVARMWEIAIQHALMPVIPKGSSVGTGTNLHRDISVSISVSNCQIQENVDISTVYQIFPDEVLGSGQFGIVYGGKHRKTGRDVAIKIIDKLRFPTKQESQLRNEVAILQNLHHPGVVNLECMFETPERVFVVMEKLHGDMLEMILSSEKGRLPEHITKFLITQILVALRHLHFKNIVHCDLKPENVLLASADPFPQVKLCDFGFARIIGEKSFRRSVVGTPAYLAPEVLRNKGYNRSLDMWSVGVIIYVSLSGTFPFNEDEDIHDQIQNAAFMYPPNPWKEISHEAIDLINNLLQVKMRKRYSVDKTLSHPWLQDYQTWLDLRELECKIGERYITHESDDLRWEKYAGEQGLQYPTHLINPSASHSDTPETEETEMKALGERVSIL
INS promoter inh cell count: also measured in INS promoter inh; calls as there; normalized cell count, %; measured here: cell count, toxicity; reference of the scale not given here;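 cells exposed to compound for 48 h; stained nuclei by imaging scaled within each plate; lower means fewer cells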
HSV augment primary fold: second read-out of HSV augment, no call of its own (marks repeat the call); fold increase; compound at 10 µM; measured here: primary screen fold increase 10 uM; tested in PC3 cells;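 GFP signal in the first replicate; 1 = infected wells without compound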
The depositor's hits bear a star; i = inactive; . = not tested or not shown.

Every second line gives: INS promoter inh | INS promoter inh cell count | GALR2 ag | RGS16-Gao HTS | HSV augment | HSV augment primary fold | PKD1 inh
COc1ccc(NC(=S)N(CCN(C)C)C(C)c2ccco2)cc1 (centres undefined)
  0 | 174 | -0.6 | 100 | i | 0.86 | -9
Cc1ccc(C(=O)N2CCN(C3CCCCC3)CC2)s1
  -9 | 89 | -0.4 | 96 | i | 1.1 | -1
CN1C(=O)c2ccccc2C(C(=O)O)C1c1cccc(Cl)c1 (centres undefined)
  0 | 68 | -2.2 | 167 | i | 1 | -13
Cc1ccc(N=c2c([N+](=O)[O-])nn(-c3ccc4c(c3)OCCO4)n2O)c(Cl)c1
  40 | 99 | . | 172 | i | 0.89 | -4
c1ccc(N=P(N2CCOCC2)(N2CCOCC2)N2CCOCC2)cc1
  0 | 160 | -1.6 | 124 | i | 0.87 | 1
O=C(CN1C(=O)C2CCCCN2C(=O)c2ccccc21)N1CCCc2ccccc21 (centres undefined)
  0 | 65 | -0.7 | 102 | i | 0.66 | 2
Cc1cccc(NC(=O)c2cc3c(n(-c4ccccc4)c2=O)CCCC3=O)n1
  17 | 61 | -2.7 | 105 | i | 0.97 | -7
COCC(C)NC(=O)c1cc2cc(OC)ccc2[nH]1 (centres undefined)
  . | . | . | 103 | i | 1.1 | .
Cc1ccc(/C=C2/NC(=O)N(c3ccccc3)C2=O)o1
  -23 | 71 | -2.0 | 101 | i | 0.89 | -8
COC(=O)CSc1nnc(CNC(=O)c2cccc(C)c2)n1-c1ccccc1OC
  . | . | -0.1 | 104 | . | . | 1
Cc1cc(C)c(NC(N)=S)c(C)c1
  . | . | . | 103 | i | 1 | .
COc1ccc(S(=O)(=O)NCCCCCC(=O)O)cc1C(=O)O
  . | . | . | 94 | i | 1 | -4
C#CCn1cnc2c(cnn2-c2ccc(C)c(C)c2)c1=O
  36 | 101 | -1.8 | 109 | i | 0.96 | -2
COc1cc(NC(=S)NCCN2CCOCC2)cc(OC)c1
  64* | 118* | -1.2 | 184 | i | 1 | 6
O=C(Nc1ccccc1)N1CCn2c(nc3ccccc32)C1
  . | . | -2.1 | 88 | i | 1 | -1
Cc1ccc2occ(/C=N/NC(N)=S)c(=O)c2c1
  . | . | -1.3 | 99 | i | 0.91 | -3
CCOCCOC(=O)C1=C(C)N(C)C(=O)NC1c1cc(Cl)c(O)c(OCC)c1 (centres undefined)
  -31 | 101 | 1.1 | 94 | i | 0.76 | -4
Cn1nnnc1SCC(=O)Nc1ccc(Oc2ccccc2)cc1
  40 | 146 | -1.1 | 100 | i | 1.1 | -16
Nc1nc(-c2ccc3c(c2)OCCO3)cs1
  . | . | -1.5 | 94 | i | 0.86 | -11
CN1CCCCC1=NCCCn1cnc2c1c(=O)n(C)c(=O)n2C
  . | . | -2.1 | 98 | i | 1.1 | 3

Next part, overlapping the part above by two compounds.
Every second line gives: INS promoter inh | INS promoter inh cell count | GALR2 ag | RGS16-Gao HTS | HSV augment | HSV augment primary fold | PKD1 inh
Nc1nc(-c2ccc3c(c2)OCCO3)cs1
  . | . | -1.5 | 94 | i | 0.86 | -11
CN1CCCCC1=NCCCn1cnc2c1c(=O)n(C)c(=O)n2C
  . | . | -2.1 | 98 | i | 1.1 | 3
CCOC(=O)c1c(NC(=O)Cn2cnc([N+](=O)[O-])n2)sc2c1CCC(C)C2 (centres undefined)
  27 | 142 | -0.9 | 99 | i | 0.93 | -17
CCOC(=O)Cn1c(CN2CCN(C(c3ccccc3)c3ccccc3)CC2)nc2c1c(=O)n(C)c(=O)n2C
  . | . | -2.0 | 176 | i | 0.85 | 0
CCOC(=O)c1c(C)oc2c1c(C(c1cccnc1)N1CCOCC1)c(O)c1ccccc12 (centres undefined)
  . | . | -1.1 | 101 | i | 0.82 | -12
COC(=O)CCN(C(=O)c1ccc(C)c([N+](=O)[O-])c1)c1ccccn1
  i | 112 | . | 96 | i | 0.89 | 3
CCOC(=O)Cn1nc(C)c(NC(=O)COc2ccc([N+](=O)[O-])cc2)c1C
  0 | 94 | . | 103 | i | 0.65 | -7
COc1ccc(CCNc2oc(-c3ccc(OC)c(OC)c3)nc2C#N)cc1
  -62 | 101 | -0.7 | 106 | i | 0.89 | -4
Cc1c(N(C(=O)Cc2cccs2)C2(C(=O)NC3CCCC3)CCCCC2)c(=O)n(-c2ccccc2)n1C
  40 | 103 | . | 101 | i | 1.1 | 3
Oc1ccc(C2C(c3ccccc3)=NN=C(c3ccc(Cl)cc3)N2O)c(O)c1 (centres undefined)
  6 | 106 | -0.8 | 103 | i | 0.89 | 2
O=C(Nc1ccc(O)c(-c2nc3ccccc3o2)c1)C1(c2ccc(Br)cc2)CCCC1
  . | . | -0.5 | 98 | i | 1 | -9
CNC(=O)CCn1nc(-c2ccccc2)c2ccccc2c1=O
  . | . | 0.1 | 96 | i | 0.94 | -12
CCCCSC1=C(C#N)C(c2ccccc2C)CC(=O)N1 (centres undefined)
  . | . | -3.4 | 100 | i | 0.99 | -5
CC(C)CNC(=O)CSc1nc2nn(-c3ccccc3)c(=O)c-2c2n1CCCCC2
  -467 | 55 | . | 104 | i | 0.92 | -1
Cc1cc2c(c(SCC(=O)NCCc3ccccc3)n1)C(=O)OC2
  19 | 120 | -0.1 | 99 | i | 0.84 | 9
Cc1c(Cc2ccccc2)sc(N)c1C(N)=O
  55 | 183 | -1.8 | 89 | i | 1.1 | -1
Cc1ccc(NC(=O)CN(C)C(=O)CSc2nncn2C)cc1
  -19 | 123 | -1.6 | 97 | i | 1 | 3
CC(=O)OCC(=O)NCC(=O)c1c[nH]c2ccccc12
  43 | 59 | -2.2 | 120 | i | 1.1 | -11
CC(=O)NC(Cc1ccc(F)c(F)c1)C(=O)NC1CCN(c2nnnn2-c2ccccc2)CC1 (centres undefined)
  10 | 102 | . | 101 | i | 0.89 | -2
C=CC(O)(C#CCN(CC)CC)c1ccccc1 (centres undefined)
  62 | 77 | -1.9 | 99 | i | 0.85 | -1
Cc1cc(N2CCOCC2)nc2cc(O)ccc12
  . | . | -0.7 | 100 | i | 0.95 | -3
Cc1c(Cl)cccc1NC(=O)Cn1cccc1
  . | . | -0.8 | 98 | i | 0.99 | -5
Cc1ccsc1/C=N/NC(=O)CNC(=O)c1cccc([N+](=O)[O-])c1C
  -8 | 82 | . | 108 | i | 0.91 | 1
CC(C)CCNCC(O)CON=C1c2ccccc2-c2ccccc21 (centres undefined)
  . | . | . | 105 | i | 0.53 | -1
O=C(CCCN1C(=O)c2cccnc2C1=O)N1CC(=O)N(CCc2ccccc2)C(=O)C1
  . | . | -1.8 | 100 | i | 0.94 | -17
CN1C[C@@H]2C(c3ccc(Cl)nc3)C3(c4cccnc4)CC2(C3)[C@H]1c1ccccc1 (some centres undefined)
  . | . | . | 82 | i | 1.1 | .
CCc1ccc(NS(=O)(=O)c2ccc3[nH]c(=O)[nH]c3c2)cc1
  . | . | . | 112 | i | 0.88 | -2
C=CCn1c(-c2ccc(N)cc2)nc2ccccc21
  . | . | -4.2 | 104 | i | 0.88 | 1
CC1(C(=O)NCc2ccc(Cl)c(Cl)c2)Oc2cccnc2NC1=O (centres undefined)
  -208 | 119 | . | 95 | i | 0.58 | 2
O=C(CSc1nnc(COc2cccc3cccnc23)o1)N1CCc2ccccc21
  . | . | -0.5 | 102 | i | 0.87 | -5
O=C(C(=O)N1CCN(c2ccccc2)CC1)c1c[nH]c2ccccc12
  . | . | . | 100 | i | 0.95 | 1
Cc1cc(C)c(OCCCCNCc2ccccc2)c(Cl)c1
  8 | 130 | -0.7 | 107 | i | 0.9 | 1
COc1cc(NC2CCCCC2O)c2nc(-c3ccc(Cl)cc3)ccc2c1 (centres undefined)
  . | . | . | 104 | i | 0.7 | .
CS(=O)(=O)N(CC(=O)N/N=C/c1ccco1)c1ccccc1Br
  0 | 147 | -0.1 | 102 | i | 1 | 2
COC(=O)CC1c2ccccc2S(=O)(=O)N1Cc1ccccc1 (centres undefined)
  . | . | . | 106 | i | 1.2 | .
Cc1ccc(N2C(=O)CC(N(CCc3ccccc3)C(=S)Nc3ccc(N(C)C)cc3)C2=O)cc1 (centres undefined)
  0 | 109 | -2.4 | 105 | i | 0.58 | -9
CCCc1cc(C(=O)NCc2ccccc2)no1
  50 | 113 | -2.4 | 108 | i | 0.93 | -8
Cc1cccc(C)c1OC(=O)C(c1ccccc1)c1ccccc1
  -7 | 108 | 0.5 | 108 | i | 0.97 | -7
O=C(Cc1ccccc1)N/N=C/c1ccc(-c2ccc([N+](=O)[O-])cc2)o1
  0 | 113 | 0.8 | 103 | i | 1.2 | 3
Cc1nc(Nc2ccccc2C(F)(F)F)sc1C(=O)N(C)C
  . | . | . | 102 | i | 0.88 | 1
COCCN(Cc1cc2cc(C)ccc2nc1Cl)C(=O)Nc1ccccc1C
  -5 | 56 | -1.0 | 98 | i | 0.97 | -3
CCOc1ccccc1NC(=O)Cn1c(=O)n(-c2ccccc2)c(=O)c2oc3ccccc3c21
  . | . | 0.2 | 102 | i | 0.86 | -7

Overlap with the part before: 6 compounds; new compounds follow.
Every second line gives: INS promoter inh | INS promoter inh cell count | GALR2 ag | RGS16-Gao HTS | HSV augment | HSV augment primary fold | PKD1 inh
CCCc1cc(C(=O)NCc2ccccc2)no1
  50 | 113 | -2.4 | 108 | i | 0.93 | -8
Cc1cccc(C)c1OC(=O)C(c1ccccc1)c1ccccc1
  -7 | 108 | 0.5 | 108 | i | 0.97 | -7
O=C(Cc1ccccc1)N/N=C/c1ccc(-c2ccc([N+](=O)[O-])cc2)o1
  0 | 113 | 0.8 | 103 | i | 1.2 | 3
Cc1nc(Nc2ccccc2C(F)(F)F)sc1C(=O)N(C)C
  . | . | . | 102 | i | 0.88 | 1
COCCN(Cc1cc2cc(C)ccc2nc1Cl)C(=O)Nc1ccccc1C
  -5 | 56 | -1.0 | 98 | i | 0.97 | -3
CCOc1ccccc1NC(=O)Cn1c(=O)n(-c2ccccc2)c(=O)c2oc3ccccc3c21
  . | . | 0.2 | 102 | i | 0.86 | -7
O=C(O)c1cccc(S(=O)(=O)Nc2ccc3[nH]c(=O)[nH]c3c2)c1
  . | . | . | 98 | i | 0.93 | .
Cn1c(=S)n(/N=C/c2ccc3c(c2)OCO3)c2ccccc21
  8 | 108 | -0.6 | 105 | i | 0.97 | -4
CC(=O)Nc1ccc(C(=O)c2ccccc2)cc1
  -19 | 109 | -0.6 | 102 | i | 1 | -17
O=C(Nc1c2c(nn1-c1ccc(F)cc1)CS(=O)(=O)C2)c1ccc(S(=O)(=O)N2CCOCC2)cc1
  . | . | . | 104 | i | 0.99 | -1
COc1ccccc1C(=O)OCCN1CCOCC1
  -3 | 147 | -0.2 | 99 | i | 0.96 | 3
O=C1Nc2cc(C(=O)N3CCOCC3)ccc2SC1N1CCOCC1 (centres undefined)
  -85 | 50 | -1.6 | 107 | . | . | -4
O=C(NNC1=NCCCCC1)c1ccccc1
  . | . | -1.0 | 107 | i | 0.82 | -5
COc1ccc(OCC(=O)NNC(=O)c2cc3ccccc3o2)cc1
  -4 | 140 | -0.6 | 113 | i | 1 | -10
Fc1cccc(CN2CCN(c3nc4nonc4nc3NC3CC3)CC2)c1
  -24 | 63 | . | 114 | i | 1.1 | -1
COc1cnn(-c2ccc(Br)cc2)c(=O)c1SCc1ccccc1
  6 | 121 | 0.0 | 74 | i | 0.99 | -10
O/N=C(\c1ccc2c(c1)OCCO2)C1CCCCC1
  -96 | 84 | -2.3 | 90 | i | 0.88 | -2
O=C(NNC(=S)NCc1ccco1)c1ccc(Cl)s1
  -38 | 112 | -3.4 | 102 | i | 0.98 | -1
O=C(NCCCN1CCN(CCCNC(=O)c2ccc3c(c2)OCO3)CC1)c1ccc2c(c1)OCO2
  12 | 105 | 0.1 | 120 | i | 0.93 | -8
CCOC(=O)c1cnn2c(C)cc(-c3ccc(F)cc3)nc12
  -3 | 101 | -4.0 | 103 | i | 0.92 | -16
COc1ccc(NC(=O)COc2ccc(-c3nn(C)c(=O)c4ccccc34)cc2)cc1
  . | . | . | 112 | i | 1 | -12
Cc1nn(Cc2ccc(C(=O)Nc3nccs3)cc2)c(C)c1Cl
  . | . | -1.0 | 25 | . | . | -7
COc1c(Cl)ccc(Cl)c1C(=O)NCc1ccco1
  21 | 116 | . | 108 | i | 0.91 | -5
Cc1cc(C)c2c(NC(N)=S)n[nH]c2n1
  14 | 177 | . | 98 | i | 0.98 | 1
COc1cccc2cc(C(=O)N3CCCCC3C)c(=O)oc12 (centres undefined)
  60 | 86 | -0.4 | 109 | i | 0.97 | 0
CCCCc1c(C)nc(N)[nH]c1=O
  . | . | -1.4 | 101 | i | 0.94 | -13
O=c1n(CCCN2CCN(c3cccc(Cl)c3)CC2)nc2ccccn12
  18 | 149 | -1.1 | 100 | i | 0.9 | -5
O=C(Nc1cccc(Cl)c1)Nc1nnc(CSCCOc2ccc(Cl)cc2)s1
  -7 | 62 | -1.2 | 108 | i | 0.83 | -11
